GIRK2 act = activators of human GIRK2 potassium channels. calls only for hits at 25 µM. 63,000 tested, 0.05% active. HEK293-GIRK2 thallium flux, Thallos fluorescence. P48051;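 active = among the strongest 0.2% of first-round signals and kept after retests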;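 note: first round at about 10 µM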
Target sequence (P48051 whole entry, looked up): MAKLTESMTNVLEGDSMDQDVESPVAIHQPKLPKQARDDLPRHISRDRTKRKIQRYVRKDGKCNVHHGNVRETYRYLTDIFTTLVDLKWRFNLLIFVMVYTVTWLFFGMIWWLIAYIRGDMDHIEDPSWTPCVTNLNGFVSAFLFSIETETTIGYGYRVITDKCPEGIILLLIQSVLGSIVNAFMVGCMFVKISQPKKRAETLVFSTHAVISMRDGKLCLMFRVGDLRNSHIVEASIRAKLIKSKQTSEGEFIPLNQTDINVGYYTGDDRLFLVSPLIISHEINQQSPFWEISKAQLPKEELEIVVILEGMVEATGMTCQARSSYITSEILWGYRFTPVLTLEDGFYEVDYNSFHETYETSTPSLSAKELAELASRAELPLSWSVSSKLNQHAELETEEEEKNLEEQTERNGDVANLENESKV
Calls only; i = inactive.

GIRK2 act	molecule
i	CC(=O)c1ccc(NC(=O)CCCn2nnc3ccccc3c2=O)cc1
i	COc1nn(C)cc1C(=O)N1CCOCC1CN(C)C (centres undefined)
i	COC(=O)c1sc2ccccc2c1S(=O)(=O)Nc1cc(OC)cc(OC)c1
i	COc1ccccc1CCNC(=O)Cc1sc(C)nc1C
i	COc1ccc(OC)c(-n2c(C)cn3c4c(=O)n(CCN5CCOCC5)c(=O)n(C)c4nc23)c1
i	CC(C)Oc1ccc(C(=O)N2CCN(CCn3cccn3)CC2)cc1
i	O=C(Cn1cnc2ccccc21)N1CCOCC1
i	COc1ccc(-c2noc(Cn3cnc4c(nnn4Cc4ccccc4Cl)c3=O)n2)cc1OC
i	Cc1csc(C(=O)NCCc2csc(-n3cccn3)n2)c1
i	CC(C)Sc1ccc(CC(=O)NCCn2nc(C(F)(F)F)n(C)c2=O)cc1
i	COc1cccc(NC(=O)N2CCN(Cc3nnnn3-c3ccc(F)c(F)c3)CC2)c1
i	O=C(c1ccc(F)cc1F)N1CCN(Cc2nnnn2-c2ccccc2)CC1

The list continues.
GIRK2 act	molecule
i	CN(C)S(=O)(=O)NC1CCN(c2nccs2)CC1
i	COc1ccc(OC)c(-c2cc(C(=O)NCC(c3ccco3)N(C)C)n(C)n2)c1 (centres undefined)
i	CCOc1ccc(CC(=O)Nc2cccc(-n3c(C)nc4ccccc4c3=O)c2)cc1
i	O=C(C1CC=CCC1)N1CCC(S(=O)(=O)c2ccccc2)C1 (centres undefined)
i	COc1cc(-c2noc(-c3nn(-c4ccc(C)c(C)c4)c(=O)c4ccccc34)n2)cc(OC)c1OC
i	CCC(=O)Oc1ccc2c(=O)c(-c3ccccc3)coc2c1
i	Cc1ccc(-n2ccnc(SCc3ccccc3Cl)c2=O)cc1
i	O=C(Nc1nc2c(s1)CN(C(=O)COc1ccccc1F)CC2)c1ccsc1
i	COc1cc2c(cc1OC)CN(C(=O)c1ccc(CNS(=O)(=O)c3cc(C)ccc3C)cc1)CC2
i	C=C(C)Cn1c(=O)c2c(nc3n(-c4cc(C)ccc4OC)c(-c4ccccc4)cn23)n(C)c1=O
i	Cc1ccc(NC(=O)Cn2cc(S(=O)(=O)N3CCCC3)ccc2=O)c(C)c1
i	CCOC(=O)CCC(=O)NCC1CCN(Cc2ccccc2)CC1

At a glance, part of the list above.
GIRK2 act	molecule
i	O=C(Nc1nc2c(s1)CN(C(=O)COc1ccccc1F)CC2)c1ccsc1
i	COc1cc2c(cc1OC)CN(C(=O)c1ccc(CNS(=O)(=O)c3cc(C)ccc3C)cc1)CC2
i	C=C(C)Cn1c(=O)c2c(nc3n(-c4cc(C)ccc4OC)c(-c4ccccc4)cn23)n(C)c1=O
i	Cc1ccc(NC(=O)Cn2cc(S(=O)(=O)N3CCCC3)ccc2=O)c(C)c1

New compounds follow:
GIRK2 act	molecule
i	CC(C)Oc1ccc(C(=O)N2CCN(Cc3nc4ccccc4[nH]3)CC2)cc1
i	O=C(NCCCn1ccnc1-c1ccccc1)c1ccc2nsnc2c1
i	CN(C)S(=O)(=O)c1ccc(-c2nc(C#N)c(N3CCc4ccccc4C3)o2)cc1
i	Cc1ccc(NC(=O)c2cc3c(=O)n(C)c(=O)n(C)c3s2)cc1Cl
i	O=C(NCC1CCN(S(=O)(=O)c2cccnc2)CC1)c1cccc2ccccc12
i	CC(C)Cn1c(SCC(=O)N2CCc3ccccc32)nc2cn(C)nc2c1=O
i	Cc1ccc(-c2ccc3nn(CC(=O)Nc4c(C)cccc4C)c(=O)n3n2)cc1C
i	CCCCCC(=O)/C=C/[C@H]1[C@H](O)CC(=O)[C@@H]1C/C=C\CCCC(=O)O
i	O=C(O)c1ccccc1-c1c2ccc(=O)cc-2oc2cc(Oc3ccc(O)cc3)ccc12
i	COc1cccc(C(=O)Nc2ccc3nc(C)n(-c4ccc(F)cc4)c(=O)c3c2)c1OC
i	O=C(Nc1nc(-c2cccc3ccccc23)cs1)C1CCN(S(=O)(=O)c2cccs2)CC1
i	O=C(NCc1ccccn1)c1cc(-c2cccs2)[nH]n1

Exported bar-delimited: 2 of the compounds above.
Molecule | GIRK2 act
Cc1ccc(-c2ccc3nn(CC(=O)Nc4c(C)cccc4C)c(=O)n3n2)cc1C | i
O=C(Nc1nc(-c2cccc3ccccc23)cs1)C1CCN(S(=O)(=O)c2cccs2)CC1 | i

The listing picks up, starting two compounds before the break.
GIRK2 act	molecule
i	O=C(Nc1nc(-c2cccc3ccccc23)cs1)C1CCN(S(=O)(=O)c2cccs2)CC1
i	O=C(NCc1ccccn1)c1cc(-c2cccs2)[nH]n1
i	CC(C)C(=O)Nc1ccc(S(=O)(=O)N(Cc2ccsc2)Cc2ccco2)cc1
i	COc1ccc(N/C=C(/C#N)S(=O)(=O)c2ccc(Cl)cc2)cc1Cl
i	COc1ccc(CNC(=O)N2CC(c3nc(-c4ncccn4)no3)C2)cc1OC
i	O=C(Cc1cccs1)N1CCC(COCc2ccccc2)CC1
i	Cc1cc(NC(=O)CSc2nnc(C(C)C)c3cnn(-c4ccc(C)c(C)c4)c23)no1
i	CCOc1ccc(N(C)S(=O)(=O)c2ccsc2C(=O)Nc2ccc(F)c(F)c2)cc1
i	O=C(COC(=O)c1ccc2ccccc2n1)c1cccc([N+](=O)[O-])c1
i	COc1cccc(Oc2nccn3c(=O)n(CC(=O)NCc4ccccc4Cl)nc23)c1
i	Cc1ccc(C)c(CN2C(=O)C3(c4ccccc42)N(c2cccc(F)c2)C(=O)CS3(=O)=O)c1 (centres undefined)
i	O=C(Nc1nc2c(s1)COCC2)C1CCCC1
i	O=C(NCCOc1cc(N2CCCCC2)ncn1)C1CCN(c2ccc(-c3ccccc3)nn2)CC1
i	CC(C)(O[C@@H]1O[C@H](CO)[C@@H](O)[C@H](O)[C@H]1O)C1Cc2c(ccc3ccc(=O)oc23)O1 (some centres undefined)

The results go on.
GIRK2 act	molecule
i	O=C(NCc1ccco1)NC1CCN(Cc2noc(-c3ccccc3)n2)C1 (centres undefined)
i	COc1ccc(N2CCN(Cc3nc4c([nH]3)c(=O)n(C)c(=O)n4C)CC2)cc1
i	CS(=O)(=O)c1ccc2nc(N3CCN(C(=O)c4cccs4)CC3)sc2c1
i	COc1ccc(-n2c(C)c(C)n3c4c(=O)n(CCCO)c(=O)n(C)c4nc23)cc1
i	COc1ccc(S(=O)(=O)N2CCCOC2CNC(=O)C(=O)NCc2ccccc2)cc1 (centres undefined)
i	O=C(Nc1ccc2c(c1)OCO2)N1CC(c2nc(C3CC3)no2)C1
i	COc1ccccc1OCC#CCNC(=O)Cn1cccn1
i	COc1ccccc1CCNC(=O)CN(C)c1nc2ccccc2s1
i	CCCn1c(=O)c2c(nc3n2CCCN3c2ccc(OC)cc2OC)n(C)c1=O
i	COC(=O)CSc1nc(C)cc(C)c1C#N
i	N#CC1=CN(c2ccc(C(F)(F)F)cc2)c2cc(F)ccc2S1(=O)=O
i	COc1ccc(C(=O)NCCS(=O)(=O)N2CCc3ccccc3C2)cc1OC

Other entries follow:
GIRK2 act	molecule
i	CCCCC[C@H](O)/C=C/[C@@H]1[C@@H](CCCCCCCO)[C@@H](O)C[C@H]1O
i	N#Cc1cccc(C(=O)Nc2ccc(-c3ccn[nH]3)cc2)c1
i	CC(C)(C)NC(=O)Cn1nc(-c2ccccc2)c2sc(N3CCCCC3)nc2c1=O
i	COc1ccc(CCNC(=O)N2CCC3(CC2)OCCCO3)cc1
i	Cc1ccc(-n2cc(C(=O)N3CCC(NC(=O)c4cccc(Cl)c4)CC3)nn2)cc1C
i	Cc1cccc(-n2ccnc(SCC(=O)Nc3cccc(Cl)c3)c2=O)c1
i	O=C(Oc1ccc2c(c1)O/C(=C\c1ccc3c(c1)OCO3)C2=O)c1ccco1
i	Cc1ccc(F)cc1NC(=O)CSc1cc(-n2ccc(C(=O)NC3CC3)n2)ncn1
i	CC(C)S(=O)(=O)c1ccc(CC(=O)Nc2ccc(-n3nnc(C(N)=O)n3)cc2)cc1
i	O=C(Cn1cccc(S(=O)(=O)N2CCCCCC2)c1=O)Nc1ccc(Cl)cc1
i	Cc1cccc(CC(=O)N2CCC(CSc3nccn3C)CC2)c1
i	O=C(CCCSc1ccc(NC(=O)c2cccs2)nn1)NCc1ccco1

The listing continues.
GIRK2 act	molecule
i	CN(C)c1cccc(C(=O)N2CCCSCC2CN2CCCC2)c1 (centres undefined)
i	CCc1cc(=O)n(CC(=O)Nc2cc(Cl)ccc2C)c(C)n1
i	CN(C)c1ncc(NC(=O)Cn2cnc3ccccc32)cn1
i	COc1ccc(-n2nnc3c(N4CCN(C(=O)CN5C(=O)c6ccccc6C5=O)CC4)ncnc32)cc1
i	CCCS(=O)(=O)N1CCCc2ccc(NC(=O)NCc3ccc(Cl)cc3)cc21
i	O=C(CSC1CCCC1)NCCCn1ccnc1-c1ccccc1
i	Cc1cc(NC(=O)c2ccc(S(=O)(=O)N3CCC(C)CC3)cc2)n(-c2nc3ccccc3s2)n1
i	O=C(NCC(F)(F)F)c1csc(Nc2ccccn2)n1
i	COc1ccc(-n2ccn(CC(=O)c3ccc(F)cc3)c(=O)c2=O)cc1
i	O=c1c2ccccc2nc(SCc2nc(-c3ccc4c(c3)OCO4)no2)n1CCc1ccccc1
i	O=C(/C=C\c1ccc([N+](=O)[O-])cc1)N1CCN(c2ncnc3c2nnn3-c2ccc(Cl)cc2)CC1
i	Cc1cc(NC(=O)CCc2ccc(-c3ccccc3)o2)no1

Further compounds.
GIRK2 act	molecule
i	O=C(c1ccncc1)N1CCC(CNS(=O)(=O)c2ccc(Br)s2)CC1
i	CC1(C)OCC2(CO1)CN(C(=O)c1csc(-c3ccccc3)n1)C2
i	Cc1ccc(C(C)C)c(OCC(O)Cn2c(N3CCCCCC3)nc3c2c(=O)[nH]c(=O)n3C)c1 (centres undefined)
i	Cc1cc(C)n(-c2cc(N3CCCC(C(=O)Nc4cccc(Cl)c4Cl)C3)ncn2)n1 (centres undefined)
i	O=C(Cc1cccs1)N1CCN(c2ccc3nncn3n2)CC1
i	COc1cccc(-n2ccn(CC(=O)Nc3ccc(F)cc3)c(=O)c2=O)c1
i	Cn1c(C(F)(F)F)nn(CCNC(=O)Nc2cccc(C(F)(F)F)c2)c1=O
i	COc1ccc(C2CC3C4NN=C(SCC(=O)Nc5cccc(SC)c5)N4C=CN3N2)cc1 (centres undefined)
i	O=C(NCCn1nc(-c2ccco2)ccc1=O)c1cc2ccccc2[nH]1
i	COc1ccc(/C=C2\SC(=S)N(c3ccc(C)cc3)C2=O)cc1OC
i	Nc1c(C(=O)N2CCCC2)sc2nc3c(cc12)CCCCCC3
i	CCSc1ccccc1C(=O)NCCc1ccoc1

(continued)
GIRK2 act	molecule
i	O=C(Nc1ccc(-c2cnc3n2CCC3)cc1)c1ccc2nc[nH]c2c1
i	CC(CCc1ccccc1)NC(=O)c1cn(-c2ccc(Cl)cc2)nn1 (centres undefined)
i	O=C(c1ccc(S(=O)(=O)N2CCOCC2)cc1)N1CCC(CSCc2ccco2)CC1
i	COc1ccccc1OCC#CCNC(=O)c1ccc(NC(C)=O)cc1
i	COc1cccc2sc(N(CCCn3ccnc3)C(=O)c3ccco3)nc12
i	COc1ccc(NC(=O)COc2ccc(Cl)cc2)cc1N1CCCC1=O
i	Cc1cc(=O)n(CC(=O)NCc2ccc(F)cc2Cl)c(N2CCOCC2)n1
i	COc1ccc(OCCS(=O)(=O)Nc2cc(C(F)(F)F)ccc2OC)cc1
i	CCOC(=O)c1csc(NC(=O)CCS(=O)(=O)Cc2ccccc2)n1
i	COc1ccccc1-c1ccc(N2CCN(S(=O)(=O)Cc3ccccc3)CC2)nn1
i	O=C(Cn1nc(-c2cccs2)ccc1=O)N1CCCc2ccccc21
i	COc1ccc(CC(C)(O)CNC(=O)c2cnccn2)cc1 (centres undefined)

Remaining list, next part
GIRK2 act	molecule
i	COC(=O)c1scc(-c2ccc(C)cc2)c1S(=O)(=O)N1CCC(C(N)=O)CC1
i	COc1ccc(-c2c(-c3ccc(OCCN4CCOCC4)cc3O)n[nH]c2C)cc1OC
i	Cc1nc(C2CC(=O)N(c3ccc4c(c3)OCO4)C2)no1 (centres undefined)
i	Cn1cnnc1SCCNC(=O)c1csc(-c2cc3ccccc3n2C)n1
i	COCCN(Cc1ccncc1)S(=O)(=O)c1cc(C)c(OC)c(C)c1
i	O=C(COc1ccc(Cl)cc1)Nc1ccc(-c2cnc3n2CCC3)cc1
i	Cc1cc(C)cc(NC(=O)C(=O)NCC2(O)CCc3ccccc32)c1 (centres undefined)
i	CCOc1ccc(-c2noc(Cn3nc(-c4ccc(OC)c(OC)c4)ccc3=O)n2)cc1
i	Cc1cccc(Cn2c(=O)c3c(nc4n3CC(C(C)(C)C)=NN4C)n(C)c2=O)c1
i	O=C(NC1CC(=O)N(C2CC2)C1)c1ccc(=O)[nH]c1 (centres undefined)
i	Cc1csc(COc2ccc(C(=O)N3CCN(S(C)(=O)=O)CC3)cc2)n1
i	Cc1c(C)n2c3c(=O)n(CC(=O)OCc4ccccc4)c(=O)n(C)c3nc2n1C1CCCCC1

The final 3 entries of the part before open the next one:
GIRK2 act	molecule
i	O=C(NC1CC(=O)N(C2CC2)C1)c1ccc(=O)[nH]c1 (centres undefined)
i	Cc1csc(COc2ccc(C(=O)N3CCN(S(C)(=O)=O)CC3)cc2)n1
i	Cc1c(C)n2c3c(=O)n(CC(=O)OCc4ccccc4)c(=O)n(C)c3nc2n1C1CCCCC1
i	COc1ccc(N2CCN(C(CNS(=O)(=O)c3ccccc3)c3cccnc3)CC2)cc1 (centres undefined)
i	CCOC(=O)COc1ccc2c(c1)O/C(=C\c1cccc(OC)c1OC)C2=O
i	Cc1ccc(C)c(S(=O)(=O)Nc2ccc3c(c2)N(S(=O)(=O)c2ccccc2)CCC3)c1
i	Cc1csc(COc2ccc(C(=O)Nc3ccc(F)c(C(F)(F)F)c3)cc2)n1
i	CC(C)(C)C(O)/C=C/c1ccc2c(c1)OCO2 (centres undefined)
i	COc1ccc(OC)c(CNC(=O)c2nnn(-c3ccc(F)c(C)c3)c2-c2ccncc2)c1
i	O=C(CCS(=O)(=O)c1ccccc1)N1CCN(C(=O)C2CC2c2ccc(F)cc2)CC1 (centres undefined)
i	CCOc1ccc(/C=C/C(=O)Nc2ccc(OC)c(Cl)c2)cc1OC
i	COc1ccc(CNC(=O)Cn2c(=O)nc(-c3ccccc3)c3cc(Cl)ccc32)cc1OC

Compound activity (PubChem)

Only part of the results is shown; rates above refer to the full screens.
